Ba CapD inh = Bacillus anthracis CapD inhibitors, primary screen, biochemical, fluorescence intensity | CapD gamma-glutamyltranspeptidase (Bacillus anthracis Ames Ancestor) | z-score (no concentration beside the values) | 140,000 compounds, 0.23% hits | purified CapD enzyme, fluorescence intensity read-out; hits give low values; some hits fall short of the stated cut;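 active means z-score under -4 in either of two replicates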;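 further: stock transfer was 100 nL into about 40 µL; score is relative to mean and spread of the plate; one replicate is shown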
AID504770 = growth inhibition of E. coli YBA685, primary screen, V. cholerae RctB inhibitors | 130,000 compounds, 0.27% hits | z-score (test concentration not listed) | AID 504770, 2011 | E. coli YBA685 rctB-dependent plasmid, OD600 growth, 3 h; hits give low values;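 active means z-score under -2 on both plates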;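 further: wells of about 30 µL received 100 nL stock; score is relative to mean and SD of the test wells; the first replicate is given; strong numbers were not always called active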
The depositor's hits bear a star; . = no result given; & = joins results of further samples.

Order of results: Ba CapD inh | AID504770
O=C(OCCCn1c(=O)[nH]c2ccccc21)c1ccc(S(=O)(=O)N2CCOCC2)cc1
    . | 0.35
CC1=NN(c2ccccc2)C(=O)/C1=C/c1c(C)[nH]n(-c2ccccc2)c1=O
    0.61&0.23 | -0.05
CC(=O)N1c2ccc(S(=O)(=O)NCC3CCC(C(=O)NC4CCCC4)CC3)cc2CC1C (centres undefined)
    -2.02 | 3.7
O=S(=O)(NCc1ccc(Cl)cc1Cl)c1ccc(N2CCOCC2)nc1
    4.73 | 0.1
CCOC(=O)c1sc2nc(SCC(=O)c3ccccc3)n(Cc3ccco3)c(=O)c2c1C
    1.52 | .
COc1ccc(N2CCN(c3nc(N4CCOCC4)nc(N4CCOCC4)n3)CC2)cc1
    -1.03 | .
Cn1c(=O)oc2cc(S(=O)(=O)N3CC=C(c4ccccc4)CC3)ccc21
    0.275 | -0.8
Cc1csc(-c2nc(-c3ccc(C(F)(F)F)cc3)no2)c1
    0.695 | 0.25
O=c1oc(Nc2ccc(C(F)(F)F)cc2)nc2ccccc12
    -0.04 | .
O=C1CCCC(O)=C1C=Nc1cccc2ccccc12
    0.395 | -0.4
CCOc1cc(C)nc(NCCc2ccc(OC)c(OC)c2)n1
    . | 0
CSc1nc2c(c(=O)[nH]1)C(c1ccc3c(c1)OCO3)CC(=O)N2 (centres undefined)
    0.04 | -0.95
COC(=O)c1cc(C(=O)c2ccccc2)n2c(=O)/c(=C\N(C)C)sc12
    . | 0.8
COC(=O)c1nnn(CC(=O)Nc2ccc(OC)cc2)c1N
    -1.04 | -2.85
N#C/C(=C\c1ccc(C(F)(F)F)cc1)c1cccc(C(F)(F)F)c1
    0.435 | -0.85
NC(=O)c1sc2nc3c(cc2c1N)C(=O)CCC3
    0.17 | 1.35
COc1ccc(N(CC(=O)N2CCN(c3ccccc3OC)CC2)S(=O)(=O)c2ccccc2[N+](=O)[O-])c(OC)c1
    -0.49 | .
NC(=O)COC(=O)c1cccc(S(=O)(=O)N2CCc3ccccc32)c1
    . | -0.2
O=C(N/N=C1/CSC(=O)N1Cc1cccs1)c1cccs1
    . | -0.3
Cc1cc(C)n(-c2nc3ccccc3nc2N2CCN(S(=O)(=O)c3ccccc3)CC2)n1
    0.245 | -0.75
CCN(CC)C(=O)c1csc(-c2ccccc2)c1-c1ccccc1
    -0.355 | -0.25
CNC(=O)CSCc1c(C)noc1C
    . | -0.45
CCN1CCN(C(=O)c2ccc(CNS(=O)(=O)c3ccc(Br)cc3)cc2)CC1
    -0.205 | 0.6
N#CCNc1ccccc1
    . | -0.05
O=C(NC(C(=O)O)c1ccccc1)c1cccs1 (centres undefined)
    . | 2
Cc1ccc2nc3c(C#N)c(C)cc(N4CCCCC4)n3c2c1
    -0.09 | .
CN1C(=O)/C(=C/c2ccc(C(=O)NCc3ccccc3)cc2)Oc2ccccc21
    0.39 | -0.5
O/N=C(\c1ccccc1)C(O)c1ccccc1 (centres undefined)
    . | -0.25
c1ccc(-c2nnc(-c3cccc4ccccc34)o2)cc1
    80.1 | -0.9
CN(C)S(=O)(=O)c1ccc2c(c1)CCN2C(=O)CCC(=O)NC1CCSC1=O (centres undefined)
    0.13 | .
CCOC(=O)Cc1nnc2c(N(CC)c3ccccc3)nc3nonc3n12
    -0.16 | .
Cc1ccc(CNC(=O)C2CCCN(S(=O)(=O)c3c(C)noc3/C=C/N(C)C)C2)cc1 (centres undefined)
    -1.27 | 0.3
CC(C)=CCC12CN3CCN(CC(C3)C1=O)C2
    0.065 | -0.2
O=C(O)Cc1c[nH]c2ccccc12
    -0.19 | .
COc1cc(NC(=O)C2=C(N3CCOCC3)/C(=C\c3ccc(N(C)C)cc3)CCC2)cc(OC)c1OC
    . | 1.85
Cc1cc(/C=N/n2c(SCC(=O)O)nnc2C2CCCCC2)c(C)n1CC(C)C
    . | -0.9
S=C(NCc1ccco1)NCC1CCCO1 (centres undefined)
    0.43 | -0.35
CCn1c(CNC(=O)N(c2ccccc2)c2ccccc2)nnc1SC
    . | 2.2
Cc1cccc(NC(=O)CNC(=O)CSc2nnnn2-c2ccccc2)c1C
    . | -0.85
COC(=O)C1CCN(C(=O)CCOc2ccc(OC)cc2)CC1
    -0.445 | -0.35
C=C(C)C(CC=C(C)C)COC(=O)NNC(=O)Cc1ccc(OC)cc1OC (centres undefined)
    0.36 | .
CCCCOc1ccc(-c2nc(C=Nc3ccc(OC)cc3[N+](=O)[O-])c(O)o2)cc1
    -0.11 | .
NCCSCc1c(Cl)cccc1Cl
    -0.18 | .
CCOC(=O)c1nnn(-c2nonc2N)c1CN(CC)CC
    6.05 | .
COc1ccc(C(C)=O)cc1CSc1nc2ccccc2c(=O)n1CCC(=O)NCCc1ccc(OC)c(OC)c1
    -0.505 | .
O=C(Nc1ccccc1)c1cnc(-c2ccc3c(c2)CCO3)s1
    9.55 | -1.1
CC(=O)N1c2ccc(S(=O)(=O)NC(Cc3ccccc3)C(=O)N3CCCCC3)cc2CC1C (centres undefined)
    -0.14 | 0.2
COc1cc2c3c(c1OC)C1(C=CC(=O)C=C1)CC3N(C(C)=O)CC2 (centres undefined)
    0.24 | 0.9
O=c1c2c(-c3ccccc3)csc2ncn1-n1cccc1
    -0.475 | -0.5
CCOc1ccc(NC(=O)COC(=O)c2cccc(OC)c2)cc1
    . | 0.55
CC(O)CNc1ncnc2nc[nH]c12 (centres undefined)
    -0.28 | -1.45
COCCN(C(=O)c1noc2c1CCCCC2)C1CCN(C(C)=O)CC1
    0.155 | 0.5
COc1ccc(OC)c(S(=O)(=O)NNC(=S)Nc2ccc3c(c2)OCO3)c1
    -0.265 | -0.85
Cc1cc(C)nc(N2CCC(C(=O)NCc3ccncc3)CC2)n1
    2.04 | .
O=C(Cc1ccccc1)c1cc(O)c(O)cc1O
    -7.55* | -0.45
O=C(Nc1cc2ccc(O)cc2oc1=O)c1cccc(C(F)(F)F)c1
    3.03 | -0.65
O=C(Nc1ccccc1O)C1OC2OC3(CCCCC3)OC2C2OC3(CCCCC3)OC12 (centres undefined)
    -0.35 | .
CC(C)c1ccc(-c2c(C#N)c(N)nc(SC3CCCCC3=O)c2C#N)cc1 (centres undefined)
    12.2 | .
CCn1ncc2c1N1COCN(C2)c2c(cnn2CC)C1
    . | 0.95
O=C(CC(O)(c1ccccc1)C(F)(F)F)c1cccs1 (centres undefined)
    0.15 | -0.2

The list goes on:
Order of results: Ba CapD inh | AID504770
CN1CCC(N(C)C(=S)Nc2ccccc2)CC1
    0.16 | -0.7
CC(=O)N(CN1C(=O)CCC1=O)c1ccc(Cl)c(Cl)c1
    . | -0.55
O=c1cc(CSc2nc(Nc3ccc(F)c(F)c3)c3ccccc3n2)nc2ccc(Cl)cn12
    -0.14 | .
CCn1cc(SCC(=O)NC2CCCCC2)c2ccccc21
    -0.765 | -0.4
CCOC(=O)C1(CC)CC(C)(c2csc(N)n2)OC1=O (centres undefined)
    . | 0.2
O=C(Nc1cccc2ccccc12)C1CCCCN1S(=O)(=O)c1ccccc1 (centres undefined)
    0.825 | 2.45
CCN(CC)Cc1c(O)ccc2c(=O)c(-c3ccccc3Cl)coc12
    63.2 | 0.5
COc1ccccc1C(CC(=O)O)c1ccco1 (centres undefined)
    0.98 | -0.9
CC(O)c1ccc(-n2cccc2)cc1 (centres undefined)
    0.005 | 1.6
O=C(Cc1cccc(C(F)(F)F)c1)Nc1ccc(Oc2ccccc2)cc1
    0.17 | .
O=C1CSCC(=O)N1c1cc(OCc2ccccc2)c(Cl)cc1Cl
    -0.09 | .
O=c1cc(-c2ccccc2)nc2cc(-c3ccccc3)[nH]n12
    40&-0.075 | 0.15&-0.25
COC(=O)Cc1csc(NC(C)(C)C)n1
    . | -0.75
O=c1cc(-c2ccco2)oc2c1ccc1ccccc12
    -1.11 | -0.35
C/C(=N\N)c1ccc2ccccc2c1
    0.205 | 0.8
CNC(=S)Nc1cc(Cl)ccc1OC
    -0.275 | 1.6
O=[N+]([O-])c1ccc(/C=N/Nc2ccccc2)cc1
    -2.23 | .
O=C(NCCN1CCOCC1)c1ccc2c(=O)n(Cc3ccc(Cl)cc3)c(=S)[nH]c2c1
    -0.12 | 0.55
O=C(Cn1c(C(F)(F)F)nc2ccccc21)Nc1ccccc1Cl
    -0.2 | .
COc1ccc(-n2ncc3c(Nc4ccc(C)cc4C)ncnc32)cc1
    -0.11 | .
CC(=O)Nc1ccc(OCC(=O)O)cc1
    -0.48 | 0.05
O=C(O)C1CSC(c2cccnc2)=N1 (centres undefined)
    . | 1.5
Cc1cccn2cc(-c3ccc(F)cc3)nc12
    29.5 | .
N#CC1=CN2C(C(=O)C3CC3)C(c3ccccc3)C(C#N)(C#N)C2C=C1 (centres undefined)
    5.14 | .
O=C(O)c1ccc(NC(=O)C2CC(=O)N(Cc3ccc(Cl)cc3)C(=Nc3ccccc3)S2)cc1 (centres undefined)
    0.2 | .
Cc1ccccc1OCc1nnc(SCC(=O)Nc2ccnn2C2CCCC2)n1-c1ccccc1
    . | -0.95
O=C1c2ccc(F)cc2C(=O)N1C1CC1
    0.39 | -1.9
CNCC(O)Cn1c(C(F)(F)F)nc2ccccc21 (centres undefined)
    0.66 | 0.85
CN1C(=O)N(C)C2C1NC(=O)N2C1CCCCC1 (centres undefined)
    -0.53 | .
O=C1c2ccccc2NC(c2ccc(OCc3ccccc3Cl)cc2)N1c1ccc(F)cc1 (centres undefined)
    1.87 | .
CCOC(=O)C1=C(C)N=c2s/c(=C\c3cc(Br)cc(OC)c3O)c(=O)n2C1c1cccs1 (centres undefined)
    0.2 | .
CCOc1cccc2c1OC(c1cccc(Cl)c1)N1N=C(c3cccnc3)CC21 (centres undefined)
    -0.475 | .
COc1ccc(Nc2cc(C(=O)NCCc3ccccc3)c3ccccc3n2)cc1
    -1.19 | 0.75
Cc1cc2c3c(c1)c(-c1ccccc1)c(C)n3CCC2
    14.6 | -0.95
Cc1nc(-c2coc3cc(O)ccc3c2=O)cs1
    1.93 | 0.5
Cc1ccc(CSc2nc3c(c(N4CCOCC4)n2)CCCC3)cc1
    0.53 | .
CC1=C(C#N)C(c2ccccc2N2CCOCC2)C2=C(CCCC2=O)N1 (centres undefined)
    10.1 | 0.3
Cc1nn(C)c2sc(C(=O)NC3CCCCNC3=O)cc12 (centres undefined)
    1.19 | 1.7
CC(=O)Nc1ncccc1OC(C)=O
    -0.025 | .
CCOC(=O)c1ccc(NC(=O)C2COc3ccccc3O2)cc1 (centres undefined)
    -0.245 | .
CCCC1c2ccc(C)n2CCN1C(=O)NCc1ccccc1 (centres undefined)
    24.4 | -1.45
O=c1cnnc(Nc2ccccc2)[nH]1
    0.555 | .
N=S(N)c1c(O)c2ccccc2oc1=O (centres undefined)
    0.025 | 0.6
Nn1c(SCc2ccccc2)nnc1-c1ccco1
    . | 1.15
Nc1ccccc1N1C(=O)c2ccccc2C1=O
    0.48 | 0.15
Cc1cc(C(=O)COC(=O)C2CC(=O)N(Cc3ccccc3)C2)c(C)n1Cc1cccs1 (centres undefined)
    . | -0.4
CCOC(=O)c1cc(-c2ccc(Cl)cc2)oc1C(F)(F)F
    10.5 | 1.8
Cc1ccc(NCC(O)CN)c(Br)c1 (centres undefined)
    . | -0.55
CCOc1ccc2c(c1)C(=O)c1cc(O)ccc1-2
    -0.395 | .
C=CCOC(c1ccccc1)c1nc2ccccc2n1CC=C (centres undefined)
    0.575 | 0.35
O=C1c2ccccc2C2(O)N(c3ccccc3)C(=S)N(c3ccccc3)C12O (centres undefined)
    -0.64 | .
Cc1nnc(NCc2ccccc2)c2ccccc12
    . | 0.2
CCN(C(=O)CSC1CCCC1)C1CCCCC1
    0.77 | 1
CCOc1cc(/C=C2/SC(=S)N(C(CC)C(=O)O)C2=O)ccc1O (centres undefined)
    . | -0.15
CC(C)S(=O)(=O)C1=NSC2=NC(=O)/C(=C\c3ccco3)C(=N)N21
    -3.77* | 0
O=C(COCc1cc(-c2ccc(F)cc2)on1)NCCC1=CCCCC1
    -0.025 | -0.5
O=S1(=O)N=C(O)c2ccccc21
    0.13 | 1.95
O=C(NCC1CC1)NC(=O)c1ccccc1F
    0.125 | .
O=c1c2ccccc2[nH]c2ncccc12
    . | 0.05
COc1ccc(OC)c(/C=C2/SC(=S)N(CNc3ccc(Br)cc3)C2=O)c1
    -0.77 | .

Further entries.
Order of results: Ba CapD inh | AID504770
O=c1oc2cc(O)ccc2cc1-c1nc(-c2ccccc2F)no1
    91.3 | -1.35
CCCc1c(C(=O)OCC)sc(N)c1C#N
    -0.29 | -1.1
CC(C)(C)OC(=O)Nc1ccccc1C(=O)O
    0.51 | -1.45
COC(=O)CCCc1nc2ccccc2s1
    . | -0.25
CC(C)CNc1nc(SCC(N)=O)nc(N2CCOCC2)n1
    0.055 | -0.35
COc1ccc(-c2cc3cc(OC)c(OC)cc3c(Cc3ccccc3)n2)cc1C
    33 | .

Molecules from the list above that have two or more sulfur atoms, in the order listed:
Order of results: Ba CapD inh | AID504770
CCOC(=O)c1sc2nc(SCC(=O)c3ccccc3)n(Cc3ccco3)c(=O)c2c1C
    1.52 | .
O=C(N/N=C1/CSC(=O)N1Cc1cccs1)c1cccs1
    . | -0.3
CN(C)S(=O)(=O)c1ccc2c(c1)CCN2C(=O)CCC(=O)NC1CCSC1=O (centres undefined)
    0.13 | .
COc1ccc(OC)c(S(=O)(=O)NNC(=S)Nc2ccc3c(c2)OCO3)c1
    -0.265 | -0.85
CCOC(=O)C1=C(C)N=c2s/c(=C\c3cc(Br)cc(OC)c3O)c(=O)n2C1c1cccs1 (centres undefined)
    0.2 | .
CCOc1cc(/C=C2/SC(=S)N(C(CC)C(=O)O)C2=O)ccc1O (centres undefined)
    . | -0.15
CC(C)S(=O)(=O)C1=NSC2=NC(=O)/C(=C\c3ccco3)C(=N)N21
    -3.77* | 0
COc1ccc(OC)c(/C=C2/SC(=S)N(CNc3ccc(Br)cc3)C2=O)c1
    -0.77 | .

Screens: PubChem, ICCB-Longwood Screening Facility, Harvard Medical School
